# High-throughput results deposited in PubChem BioAssay by several laboratories.
# Mtb hypoxia rep – inhibitors of hypoxia-regulated fluorescent reporter in Mycobacterium tuberculosis. M. tuberculosis hypoxia-regulated fluorescent reporter, fluorescence. 0.1% of 300,000 active. AID 1159583. fluorescence inhibition, % (concentration not given with the values);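 active = 35 to 45% if threefold the growth effect, above 45% if 1.5-fold the growth effect; inactive = the rest, general growth blockers included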;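 also: wells of about 50 µL received 100 nL stock; 0% = vehicle wells and 100% = reference inhibitor wells; whole bacteria with a GFP reporter of the hypoxia response; strong numbers were not always called active; many hits fall short of the cut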
# Autofluor counter – counter-screen for toxin protease inhibitors: compound fluorescence. AID 624483. fluorescence intensity (no concentration beside the values). compound autofluorescence counterscreen, microsphere flow cytometry; stronger effect = higher value. 3.1% of 360,000 active;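 active = at least 3 SD above the mean of all compounds, about 16000 in these data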;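 also: 100 nL of 1 mM stock went into each well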
# Sa ugtP lethal – compounds lethal to S. aureus RN4220 ugtP deletion mutant | AID 1259309 | growth inhibition, % (no concentration beside the values) | OD600 growth, 16 h; some inactives read as strong as hits | 0.54% of 330,000 active;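 active = z-score under -3 and OD600 up to 0.15 on both plates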;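 also: plate controls were untreated wells for no effect and antibiotic for full effect; wells of about 80 µL received 100 nL stock; the first replicate is given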
# RN4220 kill – kills Staphylococcus aureus RN4220; S. aureus RN4220 growth, OD600, 16 h; inhibition, % (no concentration beside the values); 0.33% of 330,000 active;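 active = z-score of -3 or lower and OD600 up to 0.18 on both plates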;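 also: plate controls were untreated cells for no effect and reference antibiotic for full effect; stock transfer was 100 nL into about 80 µL; one replicate is shown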
# PrP 5UTR inh – inhibition of PrP 5' UTR reporter expression; inhibition, % (no concentration beside the values); cell-based PrP 5' UTR mRNA reporter, plate reader; 0.35% of 340,000 active;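 active = every replicate at 50% or more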;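 also: 0 = median of the neutral control wells; tested in H4 reporter cells; numbers are from one replicate; inactives centre near -14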
# BJeLR viability – kills HRASV12-expressing BJeLR cells; BJeLR (HRASV12) viability, CellTiter-Glo ATP luminescence, 48 h; reference of the scale not given here; inhibition, % (test concentration not listed); 0.17% of 300,000 active;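 active = replicate mean above 50%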;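 also: 50 nL library stock added to about 25 µL; numbers are from one replicate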
# Mtb hypoxia rep growth – recorded beside Mtb hypoxia rep, whose call it bears; growth inhibition, %; measured here: M. tuberculosis growth (absorbance);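 0% = vehicle and 100% = reference antibiotic; read after six days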
# Numbers without * were called inactive; / = no result given. The order is random, and some 4.1% of all compounds hit somewhere here.
canonical_smiles	Mtb hypoxia rep	Mtb hypoxia rep growth	Autofluor counter	Sa ugtP lethal	RN4220 kill	PrP 5UTR inh	BJeLR viability
NNC(=O)c1ccc(COc2cccc3ccccc23)cc1	4	2	2099	0	6.0	-20	-13
CCCn1cnc2scc(-c3ccc(OC)cc3)c2c1=O	14	12	3889	7	7.0	-27	-2
CCO[C@@H]1OC(C(=O)N2CCN(Cc3ccc4c(c3)OCO4)CC2)=C[C@H](C2CCCCC2)[C@H]1CCCO	/	/	4015	/	/	-37	-4
CC(=O)NS(=O)(=O)c1ccc(NC(=S)NC(=O)COc2ccccc2C)cc1	-6	2	1989	-6	-0.5	5	8
Cc1ccc(C(=O)NCc2cccnc2)cc1S(=O)(=O)N1CCCCCC1	13	9	5316	2	1.9	-5	-1
CCc1ccc(NC(=O)c2ccc(NC(=O)C3CCCO3)cc2)cc1 (configuration not stated)	3	5	3652	0	4.7	-21	3
CC(C)Cc1nnc(NC(=O)C2CC(=O)N(Cc3ccccc3)C2)s1 (configuration not stated)	7	-3	4754	1	-0.4	-14	7
O=C1C(c2ccnc3ccccc23)=C(O)c2ccccc21	/	/	3302	7	8.6	31	9
O=C(O)CCCn1c(=O)[nH]c2ccccc2c1=O	13	13	9503	-6	5.5	-27	-11
CC(=NNC(=O)CN1CCN(S(=O)(=O)c2ccc(C)cc2)CC1)c1ccco1	5	11	/	12	1.2	/	/

# Additional results follow:
canonical_smiles	Mtb hypoxia rep	Mtb hypoxia rep growth	Autofluor counter	Sa ugtP lethal	RN4220 kill	PrP 5UTR inh	BJeLR viability
Cc1cccc(/C=N/NC(=O)c2cc(C)nc3ccccc23)n1	/	/	4817	/	/	-13	3
COc1ccc(Cc2nc(C(=O)Nc3ccccc3)cs2)cc1	/	/	4157	/	/	-21	3
Cc1ccc(S(=O)(=O)Oc2ccc(C3C4=C(CCCC4=O)N(CCC(=O)O)C4=C3C(=O)CCC4)cc2Cl)cc1	-1	1	2721	-3	4.5	-20	-4
O=P(/C(=N/O)Sc1ccccc1)(N1CCOCC1)N1CCOCC1	/	/	14444	/	/	1	-7
Cc1ccc(NC(=O)C2Cc3ccccc3CN2C(=O)c2ccco2)cc1S(=O)(=O)N(C)C (configuration not stated)	2	1	6197	5	2.4	-5	0
COc1ccc(OC)c(C2=NOC(C(=O)N3CCC4(CC3)OCCO4)C2)c1 (configuration not stated)	4	4	11170	1	0.6	-23	-2
Cn1c(SCC(=O)C(C)(C)C)nnc1-c1ccc(F)cc1	1	14	4873	1	11	-27	-2
CC1CCN(C(CC(=O)c2ccccc2)C(=O)c2ccccc2)CC1 (configuration not stated)	/	/	3964	8	33	-68	/
CCN(CC)C(=O)CSc1nnc([C@H](CCSC)NC(=O)OC(C)(C)C)o1	/	/	4753	-2	-3.5	-7	/
COc1ccc(C(=O)NC2(C(F)(F)F)NC(=O)N(CCCc3ccccc3)C2=O)cc1OC (configuration not stated)	0	-6	7708	4	3.3	-20	13

# More compounds:
canonical_smiles	Mtb hypoxia rep	Mtb hypoxia rep growth	Autofluor counter	Sa ugtP lethal	RN4220 kill	PrP 5UTR inh	BJeLR viability
Cc1cccc(C(=O)ON=Cc2ccc(Br)cc2)c1	13	2	/	11	6.8	/	/
COc1ccc(OC)c(C2=NS(=O)(=O)N(C)C(C(=O)Nc3ccc(F)cc3F)=C2)c1	-2	1	5283	8	3.4	4	-1
COc1ccc(CNC(=O)c2ccc(Cn3nc(C)cc3C)o2)cc1	6	-3	5612	15	0.3	-15	15
CC[C@]12c3[nH]c4ccc(OC)cc4c3CCN1C(=O)C(CC(=O)NCC13CC4CC(CC(C4)C1)C3)C[C@@H]2C(=O)N1CCN(C(=O)c2ccco2)CC1 (some centres not stated)	-5	4	2936	0	0.1	-16	/
COc1ccc(C(=O)N2CCn3c(C)ccc3C2C)cc1 (configuration not stated)	-5	-4	5838	-1	2.9	-20	0
Cc1c(Cc2ccccc2)c(=O)oc2cc(OC(=O)c3ccccc3)ccc12	/	/	2422	19	-6.9	-1	-4
O=C(CSc1nnc(Cc2cccs2)n1-c1ccc(Cl)cc1)NCc1ccc2c(c1)OCO2	/	/	4543	-1	6.9	-5	0
Cc1nc(SCC(=O)NC2CCCCC2C)c(C#N)c(C)c1C (configuration not stated)	5	0	/	1	8.5	-6	/
Cc1ccc(S(=O)(=O)N(C)C)cc1-n1c(SCC(=O)Nc2ccc(F)cc2)nc2ccccc2c1=O	-1	0	2062	-3	4.6	-19	12
CC(C)(C)c1ccc(OCCCC(=O)N2CCOCC2)cc1	11	4	2099	-1	1.6	-46	2

# Additional entries:
canonical_smiles	Mtb hypoxia rep	Mtb hypoxia rep growth	Autofluor counter	Sa ugtP lethal	RN4220 kill	PrP 5UTR inh	BJeLR viability
C#Cc1ccc([C@@H]2C=C(C(=O)N3CCOCC3)O[C@H](OCC)[C@H]2CCCO)cc1	/	/	3779	/	/	-6	9
CCc1c(C(C)S(=O)(=O)c2ccc(C)cc2)[nH]c(=O)n1-c1ccc(OC(F)(F)F)cc1 (configuration not stated)	/	/	4829	5	-3.9	3	3
Cc1ccc(/C(O)=C2\C(=O)C(=O)N(C)C2c2ccc([N+](=O)[O-])cc2)cc1 (configuration not stated)	4	2	3743	16	3.5	-15	-3
CCOC(=O)C(C(C)=O)=C1SC2CS(=O)(=O)CC2S1 (configuration not stated)	2	-1	8453	4	1.5	-10	13
COC(=O)C(Cc1ccccc1)NC(=O)Cn1ccc(NC(=O)OCc2ccccc2)nc1=O (configuration not stated)	9	8	/	4	6.3	/	/
COc1ccc(-c2oc3ccccc3c2C(=O)OCc2ccccc2)cc1	-1	4	4168	75	-0.6	-29	7
N=C1c2ccccc2CN1NC(=O)c1cccc(S(=O)(=O)N2CCOCC2)c1	4	2	2453	5	6.7	-23	3
CCCn1c(NC(=O)c2ccc(Cl)c(S(=O)(=O)N3CCCC3)c2)nc2ccccc21	1	15	4335	-16	43	-6	-12
COc1ccccc1CNCCS(=O)(=O)NN1CCOCC1	3	8	3705	9	4.8	-13	/
Cc1ccc(-c2nnc(SCC(=O)Nc3ccc(S(=O)(=O)N4CCCCCC4)cc3)o2)cc1	3	6	9547	-5	1.9	-26	-2

# Next compounds
canonical_smiles	Mtb hypoxia rep	Mtb hypoxia rep growth	Autofluor counter	Sa ugtP lethal	RN4220 kill	PrP 5UTR inh	BJeLR viability
CCOc1ccc(NS(=O)(=O)c2ccc(C(=O)NCC3(N(C)C)CCCCC3)cc2)cc1	-1	-3	6315	18	0.7	-16	3
Cc1ccc(N2C(=O)N(CC(=O)Nc3cc(C)cc(C)c3)C(=O)C2C)cc1 (configuration not stated)	12	4	4590	2	2.4	-3	-3
COc1ccc(OCCOc2ccccc2[N+](=O)[O-])cc1	11	12	2493	5	8.6	-16	0
COc1ccccc1NS(=O)(=O)c1ccc(C(=O)NCc2ccco2)cc1	7	14	3676	1	5.7	-24	/
O=C1OC(CC(=O)N(Cc2nnc(-c3ccc(Cl)cc3)o2)C2CC2)c2ccccc21 (configuration not stated)	4	6	3613	1	2.0	2	/
CC(=O)OC(C)C[N+](C)(C)C (configuration not stated)	5	7	4265	7	5.2	-31	4
Cc1ccc(C(C)C)c(OCC(=O)N/N=C2\CC(=O)CC(C)(C)C2)c1	/	/	3664	/	/	-16	3
N#CCCN(Cc1cccnc1)C(=S)NC(=O)C1CC1	21	7	/	5	6.7	/	0
Clc1ccc(OCC#CCN2CCOCC2)cc1	4	1	5057	6	5.9	-16	5
COc1ccc(N(C(=O)c2cccnc2)S(=O)(=O)c2cccs2)cc1	9	1	2848	-1	12	-10	2

# Next part
canonical_smiles	Mtb hypoxia rep	Mtb hypoxia rep growth	Autofluor counter	Sa ugtP lethal	RN4220 kill	PrP 5UTR inh	BJeLR viability
Cc1cccc(-c2noc(CN(C(=O)C(c3ccccc3)c3ccccc3)C(C)C)n2)c1	2	5	6091	13	-2.5	-19	5
Fc1cc(F)cc(-c2oncc2-c2nnnn2-c2ccccc2)c1	1	8	10773	-5	1.9	-12	-3
CCCCCCC=NNc1nnc(Cc2ccccc2)c(=O)[nH]1	11	3	/	11	4.2	/	/
CCOC(=O)Nc1cc2c(C)cc(=O)oc2cc1C	-3	-10	2704	4	-7.0	-22	7
CN(CCNC(=O)CN1CCN(Cc2ccccc2Cl)C1=O)Cc1ccccc1	/	/	5975	2	-1.1	-6	13
O=C(Cn1nnc(-c2ccc3c(c2)OCO3)n1)N1CCOCC1	/	/	4904	1	-1.2	-16	2
O=P(c1ccccc1)(c1ccccc1)C(c1ccco1)N1CCOCC1 (configuration not stated)	-10	-11	3409	4	-3.7	-7	4
COc1ccccc1N1CCN(S(=O)(=O)c2ccccc2F)CC1	-1	-6	9928	0	-3.1	-26	0
COc1ccccc1-c1cc(C(=O)Nc2cccnc2Cl)no1	2	5	5398	1	3.3	-24	6
Cc1cc(C)c(S(=O)(=O)N(C)Cc2cnn(C)c2)c(C)c1	9	12	4383	1	6.4	-10	-7

# Remaining list, next part
canonical_smiles	Mtb hypoxia rep	Mtb hypoxia rep growth	Autofluor counter	Sa ugtP lethal	RN4220 kill	PrP 5UTR inh	BJeLR viability
Cc1ccc(/C=N/Nc2nc3ccccc3s2)o1	/	/	2235	/	/	-107	13
O=C(NCc1cccnc1)c1c(F)c(F)c(F)c(F)c1F	2	5	9195	-3	2.7	-7	0
Cc1ccc(N2C(=O)CC(Sc3ccccc3C(=O)O)C2=O)cc1C (configuration not stated)	13	5	4482	7	9.3	-19	-1
O=C(O)c1ccccc1C(=O)Nc1n[nH]c(=S)s1	2	6	5797	-5	7.7	-51	1
CCc1ccc(NC(=O)c2[nH]c(C)c(C(C)=O)c2C)cc1	16	1	5656	-6	5.2	-59	-4
CC(=O)Nc1ccc(S(=O)(=O)NCC(=O)OCC(=O)N2CCCCCC2)cc1	25	8	3997	6	1.6	-27	/
CC(O)C(=O)NN=Cc1ccccc1C(=O)O (configuration not stated)	7	0	/	11	13	/	/
COc1cccc(N2C(=O)CC(NNc3nc4ccccc4s3)C2=O)c1 (configuration not stated)	7	2	3592	-3	-1.5	-19	-2
Clc1ccccc1-c1nnc2sc(-c3ccc4c(c3)OCO4)nn12	9	3	8667	-6	11	-37	-23
Cc1cc(C)c(NC(=O)CSCc2nc3sc(C)c(C)c3c(=O)[nH]2)c(Cl)c1	10	1	3849	1	4.3	-23	/

# Going on with the list.
canonical_smiles	Mtb hypoxia rep	Mtb hypoxia rep growth	Autofluor counter	Sa ugtP lethal	RN4220 kill	PrP 5UTR inh	BJeLR viability
Nc1nc(SCC(=O)Nc2ccc3c(c2)CCC3)n[nH]1	9	7	2162	6	1.3	0	4
COc1ccc(CCN2CC(C(=O)OCC(=O)N(C)CC(=O)Nc3ccccc3Cl)CC2=O)cc1OC (configuration not stated)	3	-4	4079	2	3.8	-24	/
C[C@H](N)c1nnc(SCc2ccc(Cl)cc2Cl)o1	4	6	25593*	6	8.3	-19	6
COCC(=O)NNC(=S)Nc1cccc(C)c1C	3	6	3262	7	-0.6	10	5
COc1ccccc1N=Cc1c(C)[nH]n(-c2ccc(C)cc2C)c1=O	1	1	4591	-2	1.6	-16	-1

# Entries above that contain an aryl thioether with sulfur outside any ring (nine):
canonical_smiles	Mtb hypoxia rep	Mtb hypoxia rep growth	Autofluor counter	Sa ugtP lethal	RN4220 kill	PrP 5UTR inh	BJeLR viability
Cn1c(SCC(=O)C(C)(C)C)nnc1-c1ccc(F)cc1	1	14	4873	1	11	-27	-2
CCN(CC)C(=O)CSc1nnc([C@H](CCSC)NC(=O)OC(C)(C)C)o1	/	/	4753	-2	-3.5	-7	/
O=C(CSc1nnc(Cc2cccs2)n1-c1ccc(Cl)cc1)NCc1ccc2c(c1)OCO2	/	/	4543	-1	6.9	-5	0
Cc1nc(SCC(=O)NC2CCCCC2C)c(C#N)c(C)c1C (configuration not stated)	5	0	/	1	8.5	-6	/
Cc1ccc(S(=O)(=O)N(C)C)cc1-n1c(SCC(=O)Nc2ccc(F)cc2)nc2ccccc2c1=O	-1	0	2062	-3	4.6	-19	12
Cc1ccc(-c2nnc(SCC(=O)Nc3ccc(S(=O)(=O)N4CCCCCC4)cc3)o2)cc1	3	6	9547	-5	1.9	-26	-2
Cc1ccc(N2C(=O)CC(Sc3ccccc3C(=O)O)C2=O)cc1C (configuration not stated)	13	5	4482	7	9.3	-19	-1
Nc1nc(SCC(=O)Nc2ccc3c(c2)CCC3)n[nH]1	9	7	2162	6	1.3	0	4
C[C@H](N)c1nnc(SCc2ccc(Cl)cc2Cl)o1	4	6	25593*	6	8.3	-19	6
